Autofluor counter: flagged as autofluorescent in microsphere protease counterscreen; compound autofluorescence counterscreen, microsphere flow cytometry; stronger effect = higher value; fluorescence intensity (no concentration beside the values); 360,000 compounds, 3.1% hits; AID 624483;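 active = at least 3 SD above the mean of all compounds, about 16000 in these data; inconclusive = too few beads counted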;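 also: 100 nL of 1 mM stock went into each well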
ugtP null kill: growth inhibition of ugtP-null S. aureus, primary screen, RN4220 ugtP deletion, OD600 | 16 h; some inactives read as strong as hits | growth inhibition, % (no concentration beside the values) | 330,000 compounds, 0.54% hits | AID 1259309, 2017;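 active = z-score under -3 and OD600 up to 0.15 on both plates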;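 also: plate controls were untreated wells for no effect and antibiotic for full effect; wells of about 80 µL received 100 nL stock; the first replicate is given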
PrP 5UTR inh: inhibition of PrP 5' UTR reporter expression | cell-based PrP 5' UTR mRNA reporter, plate reader | 340,000 compounds, 0.35% hits | inhibition, % (test concentration not listed) | AID 488862, 2010;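 active = every replicate at 50% or more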;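 also: 0 = median of the neutral control wells; tested in H4 reporter cells; numbers are from one replicate; inactives centre near -14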
Mtb hypoxia rep: PubChem AID 1159583; 300,000 compounds, 0.1% hits; M. tuberculosis hypoxia-regulated fluorescent reporter, fluorescence; fluorescence inhibition, % (test concentration not listed);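 active = 35 to 45% if threefold the growth effect, above 45% if 1.5-fold the growth effect; inactive = the rest, general growth blockers included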;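 also: wells of about 50 µL received 100 nL stock; 0% = vehicle wells and 100% = reference inhibitor wells; whole bacteria with a GFP reporter of the hypoxia response; strong numbers were not always called active; many hits fall short of the cut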
BJeLR viability: MLPCN primary cell-based screen for lethality selective to Ras in HRASV12 cells | 300,000 compounds, 0.17% hits | inhibition, % (concentration not given with the values) | BJeLR (HRASV12) viability, CellTiter-Glo ATP luminescence, 48 h; reference of the scale not given here;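 active = replicate mean above 50%; inconclusive = above 50% but judged a plate artefact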;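 also: 50 nL library stock added to about 25 µL; numbers are from one replicate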
RN4220 kill: growth inhibition of S. aureus RN4220, primary screen, OD600; inhibition, % (test concentration not listed); 330,000 compounds, 0.33% hits; AID 1259311, 2017; 16 h;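 active = z-score of -3 or lower and OD600 up to 0.18 on both plates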;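 also: plate controls were untreated cells for no effect and reference antibiotic for full effect; stock transfer was 100 nL into about 80 µL; one replicate is shown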
Mtb hypoxia rep growth: recorded beside Mtb hypoxia rep, whose call it bears; growth inhibition, %; measured here: M. tuberculosis growth (absorbance);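 0% = vehicle and 100% = reference antibiotic; read after six days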
Active calls of the source: *; u = inconclusive; x = no result given.

(1) CC1(C)CC(=O)CC(=NNC(=O)COc2ccc(Cl)cc2Cl)C1
(2) O=C(CSCc1nc2ccccc2[nH]1)Nc1ccc2ccccc2c1
(3) CCOc1ccc2nc(NC(=O)c3ccoc3C)sc2c1
(4) Cc1ccc(CNCC(=O)Nc2ccc(N3CCOCC3)cc2)cc1
(5) CCOC(=O)C1CCN(S(=O)(=O)c2ccc(OC)c(OC)c2)CC1
(6) O=C(Nc1ncn[nH]1)c1ccc(Cl)cc1Cl
(7) O=C(C(=O)N1CCN(c2ccc(F)cc2)CC1)c1cn(CC(=O)N2CCOCC2)c2ccccc12
(8) N#CCSc1nc2[nH]ncc2c(=O)n1-c1ccccc1Br
(9) CC(C)(C)c1ccc(S(=O)(=O)/N=C2\C=C(NS(=O)(=O)c3ccccc3)C(=O)c3ccccc32)cc1
(10) Cc1ccc(S(=O)(=O)CCC(=O)OCC(=O)NCC(=O)Nc2c(C)cc(C)cc2C)cc1
compound no.	1	2	3	4	5	6	7	8	9	10
Autofluor counter	x	10187	3086	4227	11073	3838	6551	10145	5645	4188
ugtP null kill	-3	-12	-38	1	3	1	2	3	x	1
PrP 5UTR inh	x	-23	-16	15	-14	-26	-14	x	-9	-19
Mtb hypoxia rep	17	3	10	20	6	3	-3	2	x	1
Mtb hypoxia rep growth	2	5	6	-1	2	-5	-13	5	x	-5
BJeLR viability	x	9	81*	2	-20	0	-16	4	6	-10
RN4220 kill	-0.9	5.1	2.3	3.2	1.8	6.3	0.0	-2.2	x	2.7

(11) COc1cccc(/C=N/Nc2nc(C)cc(=O)[nH]2)c1OC
(12) COc1ccc(C2C(=O)N(C3CCCCC3)CC(=O)N2C2CCCC2)cc1 (configuration not stated)
(13) CCCCC(=O)N/N=C(\C)c1cccc(NC(=O)C2CC2)c1
(14) Cc1ccc2c(c1)N(CC(=O)NCCC1=CCCCC1)C(=O)c1cccnc1O2
(15) Cc1ccc(NC(=O)CCc2nc3ccccc3s2)c(O)c1
(16) COc1ccc(C(=O)NCCSc2ccccc2)cc1
(17) COc1ccc(OC)c(C=NNC(=O)CCc2ccc(O)c(O)c2)c1
(18) O=C(c1n[nH]c(=O)c2ccccc12)N1CCN(C2c3ccccc3-c3ccccc32)CC1
(19) Cc1cccc(NNC(=O)C2CCC2)c1
(20) Cc1nn(CC(=O)Nc2ccccn2)c(C)c1[N+](=O)[O-]
compound no.	11	12	13	14	15	16	17	18	19	20
Autofluor counter	3714	10672	2923	4659	3330	2547	x	3645	5920	7702
ugtP null kill	x	0	x	1	13	6	3	-10	7	5
PrP 5UTR inh	-19	18	-21	6	-19	-80	x	-2	1	-15
Mtb hypoxia rep	x	-4	x	x	16	14	18	13	-6	16
Mtb hypoxia rep growth	x	0	x	x	0	4	6	12	6	4
BJeLR viability	11	-2	1	-8	-1	-5	x	-6	-3	2
RN4220 kill	x	-1.1	x	-0.5	25	-0.5	1.2	1.3	1.0	11

(21) COC(=O)C1=C(c2ccc(OCc3ccccc3)cc2)CC2CCC1N2C(=O)NCCN1CCOCC1 (configuration not stated)
(22) O=C(COC(=O)c1ccc([N+](=O)[O-])o1)Nc1ccc(F)cc1
(23) N/C(=N\OC(=O)Cc1ccccc1[N+](=O)[O-])c1cccnc1
(24) CC(C)(C)N/N=C/c1cc(Cl)cc([N+](=O)[O-])c1O
(25) CC1CN(C(=O)N2CCCCC2)CCN1C(=O)N1CCCCC1 (configuration not stated)
(26) S=C(Nc1cccnc1)N1CCN(c2ccccc2Cl)CC1
(27) Cc1noc(C)c1COc1ccccc1C(=O)NCCOc1ccccc1F
(28) Cc1cc(N2CCN(C)CC2)nc2ccc(NC(=S)N3CCN(c4ccc(Cl)cc4)CC3)cc12
(29) CCN(CC(=O)Nc1ccccc1C(F)(F)F)C(=O)C1CSC2(C)CCC(=O)N12 (configuration not stated)
(30) Cn1c(CN2CCOCC2)nnc1SCc1ccccc1
compound no.	21	22	23	24	25	26	27	28	29	30
Autofluor counter	x	3774	3762	2521	3883	3258	x	4943	u	4287
ugtP null kill	3	6	x	x	1	4	-1	6	8	3
PrP 5UTR inh	x	-13	-15	-14	-16	-14	-17	-28	-42	-45
Mtb hypoxia rep	8	35*	x	x	7	1	5	15	12	7
Mtb hypoxia rep growth	12	62*	x	x	5	-4	3	4	1	7
BJeLR viability	x	x	1	13	-1	-9	x	14	-13	0
RN4220 kill	1.9	11	x	x	6.5	5.5	2.9	4.2	5.3	4.1

(31) CC(C)OCCCNC(=O)NC(=O)c1ccc(Cl)cc1
(32) Cc1ccc(CCNC(=O)C23CN(Cc4ccccc4)CC2C(c2cccc([N+](=O)[O-])c2)=NO3)cc1 (configuration not stated)
(33) COc1ccc(C2/C(=C(/O)c3ccc4c(c3)CC(C)O4)C(=O)C(=O)N2Cc2ccncc2)cc1 (configuration not stated)
(34) O=C(COc1ccccc1)NCC(=O)NN=C/C=C/c1ccccc1
(35) CCN(C(=O)CSc1nnnn1-c1ccc(OC)cc1)C1CCS(=O)(=O)C1 (configuration not stated)
(36) Cc1ccc(C(=O)Nc2ccc(S(=O)(=O)N3CCc4ccccc4C3)cc2)o1
(37) COc1ccc(NC(=O)CNC(=O)Cc2cccc3ccccc23)c(OC)c1
(38) COc1ccccc1N1CCN(C(=O)/C=C/c2ccccc2)CC1
(39) CCN(CC)c1nc2n(c(=O)n1)CCN2CC
(40) CCOC(=O)Cn1nc(C)n(-c2ccc(Br)cc2)c1=O
compound no.	31	32	33	34	35	36	37	38	39	40
Autofluor counter	4623	3646	x	x	6615	8089	u	4574	21466*	2074
ugtP null kill	3	4	1	3	6	-2	0	5	-1	8
PrP 5UTR inh	-43	-18	-28	x	x	x	-4	-11	-41	-5
Mtb hypoxia rep	-2	18	7	-1	13	5	-6	x	0	14
Mtb hypoxia rep growth	-3	4	2	5	12	7	0	x	9	4
BJeLR viability	-8	-4	-6	x	x	-9	-6	4	-7	7
RN4220 kill	3.1	0.5	4.0	-3.8	4.1	1.5	1.7	2.6	2.2	1.8

Full records, quoted from the list. Screens in order: Autofluor counter, ugtP null kill, PrP 5UTR inh, Mtb hypoxia rep, Mtb hypoxia rep growth, BJeLR viability, RN4220 kill
O=C(C(=O)N1CCN(c2ccc(F)cc2)CC1)c1cn(CC(=O)N2CCOCC2)c2ccccc12 is listed with 6551, 2, -14, -3, -13, -16, 0.0
O=C(CSCc1nc2ccccc2[nH]1)Nc1ccc2ccccc2c1 is listed with 10187, -12, -23, 3, 5, 9, 5.1
Cc1ccc(CCNC(=O)C23CN(Cc4ccccc4)CC2C(c2cccc([N+](=O)[O-])c2)=NO3)cc1 (configuration not stated) is listed with 3646, 4, -18, 18, 4, -4, 0.5
CCN(CC(=O)Nc1ccccc1C(F)(F)F)C(=O)C1CSC2(C)CCC(=O)N12 (configuration not stated) is listed with u, 8, -42, 12, 1, -13, 5.3
O=C(c1n[nH]c(=O)c2ccccc12)N1CCN(C2c3ccccc3-c3ccccc32)CC1 is listed with 3645, -10, -2, 13, 12, -6, 1.3

Following part:
(41) O=C1c2ccc([N+](=O)[O-])cc2C(=O)N1Cc1cccnc1
(42) CC(=O)Nc1ccc(NC(=O)C(C)OC(=O)C2(c3ccc(F)cc3)CCCC2)cc1 (configuration not stated)
(43) CCCn1c(SCC(=O)N2c3ccccc3CCc3ccccc32)nc2c1c(=O)n(C)c(=O)n2C
(44) O=C(/C=C/Nc1ccc(F)c(Cl)c1)c1ccco1
(45) C=CCOc1ccc(Br)cc1CNCCCN1CCOCC1
(46) O=S(=O)(c1ccc2ccccc2c1)N1CCN(CCO)CC1
(47) COc1ccccc1-c1cc(C(=O)Nc2c(F)cc(F)cc2Br)no1
(48) COc1ccc(OCCCC(=O)Nc2nccs2)cc1
(49) O=C(COc1ccc2c(-c3ccccc3)cc(=O)oc2c1)NCCCn1ccnc1
(50) NC(=NOC(=O)CCCN1C(=O)c2ccccc2C1=O)c1ccccn1
compound no.	41	42	43	44	45	46	47	48	49	50
Autofluor counter	3521	4734	3581	3263	2138	3109	8052	3063	4351	x
ugtP null kill	2	2	1	x	2	12	6	5	-7	-4
PrP 5UTR inh	-22	-15	-10	-89	-15	-16	0	-14	43	x
Mtb hypoxia rep	3	13	1	x	8	13	0	13	x	4
Mtb hypoxia rep growth	1	6	1	x	14	3	1	11	x	7
BJeLR viability	-2	5	6	2	-14	-6	-9	5	11	x
RN4220 kill	2.1	2.6	5.1	x	1.4	4.9	0.7	3.8	-5.9	3.3

(51) c1ccc(Cn2c[n+](Cc3ccccc3)cn2)cc1
(52) Cc1ccc(C)c2[nH]c(=O)c(CN(CC3CCCO3)C(=S)NCc3ccco3)cc12 (configuration not stated)
(53) CCOC(=O)c1c(C)[nH]c(C(=O)N2CCCC(C(=O)c3cccc(OC)c3)C2)c1C (configuration not stated)
(54) CC(=O)NCCC(=O)Nc1nc(-c2cccs2)c(-c2cccs2)s1
(55) O=C(COC(=O)C1CC2CCCC(C1)C2=O)NNC(=O)c1ccccc1F (configuration not stated)
(56) COc1ccc2c(c1)C=CC1(O2)N(CCO)c2ccccc2C1(C)C (configuration not stated)
(57) Cc1c(-c2nnc(SCC(=O)O)n2-c2ccccc2Br)nnn1-c1ccccc1
(58) COC(=O)c1ccc(NC(=O)C[n+]2ccccc2C)cc1
(59) CCCc1nnc(NC(=O)CCC(=O)N2CCN(Cc3cc(Cl)ccc3OC)CC2)s1
(60) COc1ccc(C(N)=O)cc1N
compound no.	51	52	53	54	55	56	57	58	59	60
Autofluor counter	6074	5720	2595	7444	6280	4121	2004	4007	4662	20559*
ugtP null kill	0	-5	7	8	-1	-11	4	4	10	2
PrP 5UTR inh	-13	-1	-6	-28	-10	6	-9	-12	-13	-27
Mtb hypoxia rep	6	-9	4	8	13	0	13	4	2	9
Mtb hypoxia rep growth	10	-18	3	5	2	6	11	-2	1	12
BJeLR viability	-21	4	-6	-5	-4	0	-5	-3	4	-1
RN4220 kill	2.3	0.7	3.1	4.0	-0.1	21	6.5	0.2	2.5	4.6

(61) COc1ccccc1Nc1nc(N)nc(CN2CCC(C)CC2)n1
(62) COc1cc([N+](=O)[O-])cc2sc(NC(=O)C3CC3)nc12
(63) CSc1ccc(C=Nn2c(C3CCCCC3)n[nH]c2=S)cc1
(64) Cc1ccc(C(=O)NCCNC(=O)c2ccccc2)cc1
(65) O=C(CSc1nnc(CNC(=O)C23CC4CC(CC(C4)C2)C3)n1-c1ccccc1)Nc1ccccc1
(66) Cc1ccc(C2C3=C(CC(C)(C)CC3=O)OC3=C2C(=O)CC(C)(C)C3)cc1
(67) Nc1c(C(=O)CCC(=O)O)oc2ccc(Cl)cc12
(68) CC12CCC(=O)N1C(C(=O)NNC(=O)c1ccc(Cl)cc1)CS2 (configuration not stated)
(69) COC(=O)c1cccc(NC(=O)Cn2cnc3c2c(=O)n(C)c(=O)n3C)c1
compound no.	61	62	63	64	65	66	67	68	69
Autofluor counter	3657	4240	x	4414	2519	2450	6112	3600	11314
ugtP null kill	1	-3	0	-3	5	5	-5	0	0
PrP 5UTR inh	-6	-35	x	-2	-5	-9	-9	-11	-11
Mtb hypoxia rep	6	17	6	-4	11	-12	8	4	5
Mtb hypoxia rep growth	2	8	-8	8	6	-8	9	2	3
BJeLR viability	-8	2	x	-9	-4	-16	1	x	-5
RN4220 kill	-4.8	8.1	0.5	-0.6	3.1	4.5	-9.6	2.3	7.1

Molecules shown so far with a tert-butyl group (2):
(9) CC(C)(C)c1ccc(S(=O)(=O)/N=C2\C=C(NS(=O)(=O)c3ccccc3)C(=O)c3ccccc32)cc1
(24) CC(C)(C)N/N=C/c1cc(Cl)cc([N+](=O)[O-])c1O
compound no.	9	24
Autofluor counter	5645	2521
ugtP null kill	x	x
PrP 5UTR inh	-9	-14
Mtb hypoxia rep	x	x
Mtb hypoxia rep growth	x	x
BJeLR viability	6	13
RN4220 kill	x	x

Bioassay records: PubChem, several laboratories
